Compound activity (PubChem)
HSD17B inh: qHTS Assay for Inhibitors of HSD17B4, hydroxysteroid (17-beta) dehydrogenase 4. 3-hydroxyacyl-CoA dehydrogenase type-2 (Homo sapiens), Q99714. recombinant HSD17B10, NADH fluorescence kinetic; many of its hits are not listed in these tables. Potency, µM (doses to about 57.1 µM), without a hit: at the highest dose activity change, negative = inhibition, most hits filed as inhibitors. hit rate 7.6% among 75,000. AID 893, 2007; active means well fitted inhibition curve with a large enough effect; inconclusive means small, poorly fitted or top-dose-only effect; inactive means no such curve, though single readings can be large or run the other way;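 further: the protocol describes HADH2 (HSD17B10) and not the HSD17B4 of the title; nearly all actives have a fitted effect of over 70% in size; most hits overshoot -100% by far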
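Activity followed as NADH fluorescence increase (ex 360, em 450 nm) every 30 seconds for 4 min, using final 90 uM beta-hydroxybutyryl CoA and 1 mM NAD+. Recombinant His-tagged enzyme, 20 nM, pH 9.0 Tris buffer, 15 min compound preincubation.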
An asterisk follows results filed as active; ? = inconclusive; [ ] = dose if it differs, or a comment. On the % scale 0 is the no-effect control and ±100 the full control effect; potency means the concentration at half of the fitted maximal effect. Only part of the results is shown; the hit share may differ from the screen's.

| mol | HSD17B inh |
| --- | --- |
| CCOc1ccc(NC(=O)CSc2nnc(-c3ccccc3Cl)n2Cc2ccco2)cc1 | -4.0% |
| CC(=O)C1=C(O)C(=O)N(Cc2cccnc2)C1c1ccc(Cl)cc1Cl (stereo not drawn) | 2.0% |
| Cc1ccc(Nc2nc(N3CCOCC3)c3ccccc3n2)cc1 | ? |
| CSC1=NCCN1C(=O)c1cccs1 | 3.4% |
| CCn1c(SCC(=O)Nc2cc(C)on2)nnc1-c1cccs1 | -4.9% |
| COCCN1C(=O)C(=O)/C(=C(/O)c2cccc(OC)c2)C1c1ccncc1 (stereo not drawn) | -17.0% |
| CCOc1ccc(OCC)c(NC(=O)CCn2cccc2)c1 | 6.1% |
| Cc1ccc(C(=O)NC2CCCc3ccccc32)o1 (stereo not drawn) | ? |
| CC1CCN(CCCNC(=O)C2CC(=O)N(C3CCCCCC3)C2)CC1 (stereo not drawn) | -4.1% |
| C=C1C(=O)C=C2CN(C(=O)c3ccccc3)[C@@](Cc3ccc(F)cc3)(C(=O)OC)[C@@H]12 | ? |
| CS(=O)(=O)N1CCC(C(=O)NCc2ccncc2)CC1 | 7.0% |
| CC(C)Nc1c(N)c(=O)oc2ccccc12 | ? |
| COc1cc(OC)c(N2CC34C=CC(O3)C(C(=O)O)C4C2=O)cc1Cl (stereo not drawn) | 2.0% |
| Cc1ccc2c(CC(=O)NCc3ccc4c(c3)OCO4)coc2c1 | -7.8% |
| Fc1ccccc1CSc1nnc(-c2cccs2)o1 | -3.7% |
| CCOc1ccccc1N1CCN(CC(=O)Nc2nnc(CC)s2)CC1 | -5.2% |
| O=C(NCc1ccc2c(c1)OCO2)C1CCCN(S(=O)(=O)c2cccc3nonc23)C1 (stereo not drawn) | -21.8% |
| Cc1cc(C)n(-c2nnc(C)n2/N=C/c2cc(Br)ccc2OCc2ccccc2)n1 | -8.3% |
| O=C(Nc1cnc2sc3c(n2c1=O)CCCC3)c1ccc(F)cc1 | -3.2% |
| O=C(CSc1nnc(CNc2ccccc2)o1)N1CCN(C(=O)c2ccco2)CC1 | 9.2% |
| COc1ccc(Br)c2c1C[C@H](C(=O)O)CC2 | 7.1%[11.4 µM] |
| COc1ccc(S(=O)(=O)N(Cc2nc3ccccc3c(=O)[nH]2)C2CCCC2)cc1 | 1.4% |
| CC(C)Sc1oc(-c2ccco2)nc1S(=O)(=O)c1ccccc1 | ? |
| COC(=O)C1=C(C)NC(=O)CC1c1cc(Br)ccc1F (stereo not drawn) | 4.9% |
| Cc1ccc(S(=O)(=O)c2nc(NC3CCS(=O)(=O)C3)sc2Cl)cc1 (stereo not drawn) | -1.4% |
| CCCCN1C(=O)C(NC(C)=O)c2ccccc21 (stereo not drawn) | ? |
| O=C(CN1CCN(c2ccccc2F)CC1)c1ccc2c(c1)OCO2 | -10.4% |
| CCCC1=C(C(=O)OCC)C(c2ccccc2OC)NC(=O)N1 (stereo not drawn) | 7.8% |
| Cc1ccc(NC(=O)c2cccs2)cc1NC(=O)c1ccco1 | 6.2% |
| c1ccc(SC(Sc2ccccc2)c2ccc3c(c2)OCO3)cc1 | 4.2%[11.4 µM] |
| CC(C)CCn1c(SCCN2CCOCC2)nc2c1c(=O)[nH]c(=O)n2C | -2.3% |
| CCOC(=O)c1[nH]c(C)c(C(=O)OCC(=O)NC(=O)NC(C)(C)C)c1C | -23.9% |
| OC(CN1C2=NCCCN2c2ccccc21)c1ccc2c(c1)OCO2 (stereo not drawn) | 3.1% |
| CC(C)(C)c1ccc(S(=O)(=O)NCC(=O)N2CCN(C(=O)c3ccco3)CC2)cc1 | 10.9% |
| O=C(CN1CCN(c2ccc(Cl)cc2)CC1)Nc1ccc(F)c(F)c1 | -0.6% |
| COc1ccc(CCNC(=O)c2c(O)c3cccc4c3n(c2=O)CC4)cc1 | -19.2% |
| O=C(COc1ccccc1)NCC(=O)NC1=NCCS1 | 1.2% |
| Cc1ccc(C)c(S(=O)(=O)c2c(N)n(/N=C/c3ccco3)c3nc4ccccc4nc23)c1 | 31.6µM* |
| CCSC1=NCN(CCCC(=O)O)CN1 | 8.4% |
| O=C(c1ccc(Cl)cc1)N(Cc1cccs1)C1CCS(=O)(=O)C1 (stereo not drawn) | 4.2% |
| O=C(Cn1nnc(-c2ccccc2)n1)OCc1csc(-c2ccccc2)n1 | 0.3% |
| O=C(N/N=C1/C[C@@H](O)[C@@H](O)[C@@H]2[C@@H]3C(=O)N(C[C@@H]4CCCO4)C(=O)[C@H]3CC[C@@H]12)OCc1ccccc1 | -0.6%[11.4 µM] |
| CO[C@@H]1COC(=O)[C@H](C)NC(=O)C/C=C\[C@@H](C)[C@H](OC)COC(=O)[C@H](C)NC(=O)C/C=C\[C@H]1C | 1.2%[11.4 µM] |
| Cc1nn2c3c(cnc2c1-c1ccccc1)C(=O)CCC3 | 3.8% |
| CC(CCc1ccccc1)NC(=O)COC(=O)C1=COCCO1 (stereo not drawn) | 8.2% |
| O=C(NCc1ccc(F)cc1)C1CCC(=O)N1C1CCCCC1 (stereo not drawn) | -0.9% |
| CCC(C)C(NC(=O)c1ccc(Cl)cc1)C(=O)O (stereo not drawn) | 0.5% |
| CCn1cc(C(=O)OC(C)C(=O)Nc2c(C)n(C)n(-c3ccccc3)c2=O)c(=O)c2ccc(C)nc21 (stereo not drawn) | 6.7% |
| O=C1CC(c2ccccc2)CC(O)=C1C=NCCN1CCNCC1 (stereo not drawn) | 19.2% |
| COC(=O)c1cn(C(=O)c2cccs2)c2ccccc12 | 10.9% |
| COc1ccc(C2CC(c3ccc(OC)cc3)n3nc(N)nc3N2)cc1 (stereo not drawn) | -3.1% |
| CNS(=O)(=O)c1ccc(NC(=O)C(CCSC)NC(N)=O)cc1 (stereo not drawn) | 1.1% |
| O=C(Nc1ccccc1)NC1CCN(CCCN2C(=O)c3ccccc3C2=O)CC1 | 0.1% |
| CC(C)C(NC(=O)c1ccc(S(=O)(=O)N2CCOCC2)cc1)c1nc2ccccc2[nH]1 (stereo not drawn) | 7.4% |
| COCCNC(=O)CN1CCOc2ccccc21 | 3.5% |
| CCN(CC)C(=O)c1ccc(NS(=O)(=O)c2ccccc2)cc1 | 3.7% |
| CCOC(=O)c1ccc(Nc2nnc3nc(C)cc(C)n23)cc1 | -2.9% |
| CC(=O)Nc1ccccc1NC(=O)CC(C)(C)C | 1.6% |
| O=C(O)CC12C[C@H]3C[C@@H](CC(O)(C3)C1)C2 | 6.4%[11.4 µM] |
| CCCN1Cc2cccc(C(=O)NCc3ccc4c(c3)OCO4)c2C1=O | -14.5% |

3 of the compounds above, with each value named.
Molecule: O=C(COc1ccccc1)NCC(=O)NC1=NCCS1
  HSD17B inh: 1.2%
Molecule: Cc1ccc(C)c(S(=O)(=O)c2c(N)n(/N=C/c3ccco3)c3nc4ccccc4nc23)c1
  HSD17B inh: 31.6µM*
Molecule: CCSC1=NCN(CCCC(=O)O)CN1
  HSD17B inh: 8.4%

Next part
| mol | HSD17B inh |
| --- | --- |
| CCOC(=O)c1c(C)oc2c1c1c(c3ccccc32)OCN(Cc2cccnc2)C1 | 1.8% |
| CC(Oc1ccc(Cl)cc1Cl)C(=O)NCCCn1ccnc1 (stereo not drawn) | 10.8% |
| Cc1ccc(-c2nnn(CC(=O)N(c3ccc(F)cc3)C(C(=O)NC3CCCC3)c3ccco3)n2)o1 (stereo not drawn) | 7.3% |
| O=C1Nc2ccccc2C1=Nc1ccc(-c2nnc3n2CCCCC3)cc1 | -1.7% |
| FC(F)(F)c1ccccc1-c1ccc2ncnc(NC3CC3)c2c1 | 1.9% |
| CC(C)OC(=O)C1C(=O)CC(C)(O)C(C(=O)OC(C)C)C1c1cccc(O)c1 (stereo not drawn) | 3.3% |
| CCCCn1c(NCCN(C)C)nc2c1c(=O)[nH]c(=O)n2C | -3.8% |
| O=C(COC(=O)c1ccccn1)Nc1ncc(C(F)(F)F)cc1Cl | 1.3% |
| CC(=O)NCCNc1cc(-c2ccccc2C(F)(F)F)ncn1 | -3.3% |
| CCOC(=O)CCN1C(=O)[C@H]2[C@H]3[C@H](O)[C@H](O)C/C(=N/OC/C=C(\C)CCC=C(C)C)[C@@H]3CC[C@@H]2C1=O | 4.5%[11.4 µM] |
| Cc1cc2cc(CN(Cc3ccco3)C(=O)NCc3ccccc3)c(=O)[nH]c2cc1C | ? |
| CCS(=O)(=O)NCCc1cc2cc(C)c(C)cc2[nH]c1=O | 31.6µM* |
| CCCCN(CC)S(=O)(=O)c1ccc2c(c1)CCCN2C(C)=O | 6.8% |
| O=C(CN(C(=O)C1CSC(=O)C1)c1ccccc1F)NCc1ccc2c(c1)OCO2 (stereo not drawn) | -0.4% |
| O=C(Cn1cnc2ccccc2c1=O)NCC(=O)N1CCN(c2ccccn2)CC1 | ? |
| O=C(CCCC1=NS(=O)(=O)c2ccccc2N1)N1CCN(c2ccccc2)CC1 | -0.9% |
| O=c1oc2ccccc2c2oc3cc(O)c(O)cc3c12 | 25.1µM* |
| Cc1ccccc1-n1c(Cn2c(=O)sc3ccccc32)nnc1SCC(=O)N1CCOCC1 | 6.7% |
| CCC(C)NC(=O)CCNS(=O)(=O)c1ccc(Br)cc1 (stereo not drawn) | -3.0% |
| c1ccc(Cc2nnc3sc(Nc4ccccc4)nn23)cc1 | -20.9% |
| NC(=O)C1CCCN(Cc2ccc(Cl)cc2)C1 (stereo not drawn) | 4.0% |
| CC(=O)c1ccc(NC(=O)C2CCC(C)NC2=O)cc1 (stereo not drawn) | -0.6% |
| CCOc1ccccc1NC(=O)Cn1nnc(-c2ccc(OCC)c(OCC)c2)n1 | -6.9% |
| Cc1nc2cc(NC(=O)N(C)c3ccc4ccccc4c3)ccc2o1 | ? |
| COc1ccc(N(CC(=O)NC2CCCCCCC2)S(=O)(=O)c2c(C)nn(C)c2C)cc1 | -1.1% |
| O=C(Nc1nc2ccccc2n1Cc1ccccc1)c1ccco1 | -89.5% |
| O=C(COc1ccc(S(=O)(=O)N2CCOCC2)cc1)NC1CCCC1 | -0.7% |
| COc1ccc(N2CCN(C(=O)CSc3nnc(COc4cccc5cccnc45)o3)CC2)cc1 | -4.4% |
| CC(C)OC(=O)CCCCCN1C(=O)CSC1=S | -8.1% |
| CN(C)C(=O)N1CCCC(C(=O)NCc2cccs2)C1 (stereo not drawn) | 2.5% |

Random excerpt: 3 entries already listed.
| mol | HSD17B inh |
| --- | --- |
| Cc1nc2cc(NC(=O)N(C)c3ccc4ccccc4c3)ccc2o1 | ? |
| COCCN1C(=O)C(=O)/C(=C(/O)c2cccc(OC)c2)C1c1ccncc1 (stereo not drawn) | -17.0% |
| CC(CCc1ccccc1)NC(=O)COC(=O)C1=COCCO1 (stereo not drawn) | 8.2% |

Additional entries.
| mol | HSD17B inh |
| --- | --- |
| O=C(NCc1ccc(Cl)cc1)c1cccnc1 | 5.0% |
| Cc1cnc(N)c2c(=O)oc3ccccc3c12 | 7.94µM* |
| CCC(=O)Nc1cc(-c2nn(C)c(=O)c3ccccc23)ccc1OC | 2.4% |
| Nc1nnc(Cc2c[nH]c3ccccc23)s1 | -13.8% |
| Cc1cccc(N2CCN(c3nc4ccccc4n4cnnc34)CC2)c1C | ? |
| Cc1ccccc1-n1c(SCC(=O)N2CCCC2)nnc1-c1ccccn1 | 2.0% |
| CN(C)CCCNC(=O)CCC1CCCCC1 | -6.3% |
| COc1ccccc1-c1ccc2ncnc(N(C)Cc3ccco3)c2c1 | -18.9% |
| COc1ccccc1N1CCN(C(=O)COc2ccc(Cl)cc2Br)CC1 | -2.7% |
| O=C1CC(N2CCN(CCc3ccccn3)CC2)C(=O)N1c1ccc(Cl)cc1 (stereo not drawn) | -11.9% |
| N#Cc1nc(-c2ccccc2Cl)oc1NCc1ccco1 | ? |
| Cc1cc(N2CCN(C)CC2)nc(N2CCOCC2)n1 | 5.3% |
| CCCC/C=C/C(NC(=O)c1ccccc1)c1ccccc1 (stereo not drawn) | -0.8% |
| COC(=O)c1ccc(CC(=O)c2c(C)cc(O)cc2O)o1 | ? |
| CCOC(=O)C(NC(=O)c1ccccc1)(N1CCOCC1)C(F)(F)F (stereo not drawn) | 7.0% |
| O=C(O)CC(C(=O)OC1CCCCC1)N1CCOCC1 (stereo not drawn) | 7.3% |
| CC(=O)c1ccc(N2CCN(S(=O)(=O)c3cccc(S(=O)(=O)N4CCOCC4)c3)CC2)cc1 | 6.3% |
| COC(=O)[C@H]1C[C@@H]1[C@H](NS(=O)(=O)c1ccc2ccccc2c1)c1ccccc1 | -13.0% |
| CCn1c(COc2ccc(C)cc2)nnc1SCC(=O)Nc1ccc2c(c1)OCCO2 | -6.5% |
| Cc1ccccc1-c1noc(-c2cccs2)n1 | 6.0% |
| COc1cc(C(=O)N2CCN(C(=O)c3ccccc3)CC2)cc(OC)c1OC | 1.9% |
| CCOC(=O)N1CCN(C(=O)C2CCN(S(=O)(=O)CC)CC2)CC1 | 8.0% |
| COc1ccc2nc(C)c(C(=O)OCCN(C)C)cc2c1 | 31.6µM* |
| COc1cc(C(=O)Nc2cc(-c3nc4cc(C)ccc4o3)ccc2C)cc(OC)c1OC | ? |
| CCOc1ccc(OCCSc2nc(C)cc(=O)[nH]2)cc1 | -0.4% |
| CCOc1ccccc1N(CC(=O)Nc1ccc2c(c1)OCCO2)S(C)(=O)=O | -1.0% |
| CCCCn1c(SCC(=O)N2CC(C)CC(C)C2)nc2cc(S(N)(=O)=O)ccc21 (stereo not drawn) | -0.4% |
| O=S(=O)(NCc1ccc2c(c1)OCO2)c1cccc2nsnc12 | ? |
| CN1CCN(C(=O)c2c(O)c3cccc4c3n(c2=O)CCC4)CC1 | 3.2% |
| CCOC(=O)C1=C(C)Nc2ncnn2C1c1ccc(N(C)C)cc1 (stereo not drawn) | 4.1% |
| Cc1ccc(CN2C(=O)CCC2C(=O)NCCCN2CCCC(C)C2)cc1 (stereo not drawn) | -6.1% |
| N#CCCN1CCN(S(=O)(=O)c2ccc(S(=O)(=O)NC3CC3)cc2)CC1 | -4.4% |
